StopGo reporter: High Throughput Screening for Foot and Mouth Disease Virus Antivirals; human cells with a luciferase reporter of 2A StopGo recoding; control for the full effect not named in the record; Potency, µM (top dose mostly 57.9 µM), for inactives: top-dose signal change, negative = less light; hit rate 1.2% among 410,000; AID 1159524, 2015; active = well fitted falling curve with a large enough effect; inconclusive = small, poorly fitted or top-dose-only effect; inactive = no such curve, though single readings can be large or run the other way; tested in HEK293T cells; note: % is set by controls: 0 for no effect and ±100 for the full control effect; nearly all actives have a fitted effect of over 45% in size; luciferase light after 4 h
RE007 growth inh: qHTS Assay for Inhibitors of the HIV-1 protein Vpr | S. pombe RE007 Vpr strain, BacTiter-Glo ATP luminescence, 24 h; control for the full effect not named in the record | Potency, µM (doses to about 92.2 µM), for the others: at the highest dose activity change, negative = less growth | hit rate 0.21% among 360,000; active = well fitted falling curve with a large enough effect; inconclusive = small, poorly fitted or top-dose-only effect; inactive = no such curve, though single readings can be large or run the other way;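 note: % is set by controls: 0 for no effect and ±100 for the full control effect; nearly all actives have a fitted effect of over 50% in size; the assay follows cell death caused by Vpr and the record does not say whether a fall means rescue or toxicity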
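Fission yeast RE007 carrying one integrated HIV-1 vpr copy, seeded at OD 0.01 in PMG+AL medium with 23 nL pinned compound. Grown 24 h at 30 degrees; viability read by BacTiter-Glo luminescence after 5 min.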
SARS PLpro yeast: qHTS of Yeast-based Assay for SARS-CoV PLP | S. cerevisiae expressing SARS-CoV PLpro, growth rescue; control for the full effect not named in the record | Potency, µM (titrated, usually from 32.9 µM), for inactives: top-dose activity, positive = growth rescue | hit rate 0.19% among 330,000 | AID 485353, 2010; active means well fitted rising curve with a large enough effect; inconclusive means small, poorly fitted or top-dose-only effect; inactive means no such curve, though single readings can be large or run the other way; note: 0% is about no effect; nearly all actives have a fitted effect of over 55% in size; growth read by luminescence after 48 h
Cruzain noTriton: qHTS Assay for Promiscuous and Specific Inhibitors of Cruzain (without detergent); Cruzipain (Trypanosoma cruzi), P25779; purified cruzain, Z-FR-AMC fluorescence, no detergent; Potency, µM, inactives show max response, negative = inhibition, actives largely listed as inhibitors; hit rate 2.3% among 200,000;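 note: plate controls were enzyme without inhibitor for no effect and buffer without enzyme for full effect; nearly all actives have a fitted effect of over 40% in size; top concentration of the series not given in the record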
Target sequence (P25779 123-467 limits assumed): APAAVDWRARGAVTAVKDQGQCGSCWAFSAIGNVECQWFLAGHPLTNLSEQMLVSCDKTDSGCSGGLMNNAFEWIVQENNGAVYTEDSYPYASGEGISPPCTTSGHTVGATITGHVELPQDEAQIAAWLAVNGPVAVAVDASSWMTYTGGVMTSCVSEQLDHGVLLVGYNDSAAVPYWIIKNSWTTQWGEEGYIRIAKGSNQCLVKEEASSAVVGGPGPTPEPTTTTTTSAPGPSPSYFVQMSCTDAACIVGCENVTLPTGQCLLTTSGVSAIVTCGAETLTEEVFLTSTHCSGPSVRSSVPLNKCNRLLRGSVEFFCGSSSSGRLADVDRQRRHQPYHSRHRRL
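Purified cruzain at 1.5 nM, pre-incubated 15 min with compound at room temperature in 100 mM sodium acetate pH 5.5, 5 mM DTT, 0.00005% Triton X-100. Reaction started with 2 uM Z-FR-AMC; AMC fluorescence increase over 60 s gives rate.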
MARV entry inh: qHTS for inhibitors of binding or entry into cells for Marburg Virus; Marburg virus pseudotyped entry inhibition, cell reporter; control for the full effect not named in the record; about a third of the inactives were read at about 46 µM; Potency, µM (top dose mostly 37.8 µM), for the others: at the top dose activity change, negative = inhibition, actives largely listed as inhibitors; hit rate 1.8% among 300,000; active = well fitted inhibition curve with a large enough effect; inconclusive = small, poorly fitted or top-dose-only effect, or effect the other way; inactive = flat fitted curve, though single readings scatter; tested in HEK293 cells; about a fifth of its hits are not listed in these tables; note: % is set by controls: 0 for no effect and ±100 for the full control effect; luciferase read-out
Lassa entry inh: qHTS for Inhibitors of binding or entry into cells for Lassa Virus | Lassa virus pseudotype entry inhibition, cell reporter; control for the full effect not named in the record | Potency, µM (top dose mostly 37.9 µM), without a hit: at the top dose activity change, negative = inhibition, most hits filed as inhibitors | hit rate 1.2% among 300,000; active means well fitted inhibition curve with a large enough effect; inconclusive means small, poorly fitted or top-dose-only effect, or effect the other way; inactive means flat fitted curve, though single readings scatter; tested in HEK293 cells; note: % is set by controls: 0 for no effect and ±100 for the full control effect; nearly all actives have a fitted effect of over 50% in size; luciferase read-out
NS1 inh: qHTS Assay for Inhibitors of Influenza NS1 Protein Function | AID 2326, 2010 | Potency, µM (doses to about 46.1 µM), for inactives: at the highest dose activity, positive = more growth | S. cerevisiae slowed by influenza A NS1, growth recovery by OD600 | hit rate 0.4% among 270,000; active means well fitted rising curve with a large enough effect; inconclusive means small, poorly fitted or top-dose-only effect; inactive means no such curve, though single readings can be large or run the other way; note: nearly all actives have a fitted effect of over 50% in size
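OD600 was taken as the measure of yeast growth restored by compound in an NS1-expressing S. cerevisiae strain. Cells had been washed out of glucose medium and diluted 1:100 into galactose -URA medium, pH 6.0.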
Cruzain inh Det: qHTS Assay for Promiscuous and Specific Inhibitors of Cruzain (with detergent). purified cruzain, Z-FR-AMC fluorescence, 0.01% Triton. Potency, µM, for inactives: max response, negative = inhibition, hits mostly inhibitors. hit rate 0.43% among 200,000. Cruzipain (Trypanosoma cruzi), P25779;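 note: plate controls were neutral wells for no effect and buffer without enzyme for full effect; nearly all actives have a fitted effect of over 40% in size; top concentration of the series not given in the record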
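15 min RT preincubation of 1.5 nM cruzain with compound, then 2 uM Z-FR-AMC added; kinetic AMC fluorescence, 60 s delta. Triton X-100 0.01%, pH 5.5.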
* = called active by the depositor; u = inconclusive; x = not tested or not shown; & = joins results of further samples; [ ] = another dose, or the depositor's remark. Unless noted, calls come from the whole dose curve; as a rule, active = well fitted curve in the direction sought with a large enough effect; inconclusive = small, poorly fitted or top-dose-only effect, or another doubt; inactive = no such curve, though single readings can be large; an effect the other way counts as inactive or inconclusive. Potency is the fitted concentration of half-maximal effect.

SMILES	StopGo reporter	RE007 growth inh	SARS PLpro yeast	Cruzain noTriton	MARV entry inh	Lassa entry inh	NS1 inh	Cruzain inh Det
CCn1cc([N+](=O)[O-])c(C(=O)N2CCN(C(=O)c3ccco3)CC2)n1	-11.4%	1.0%	9.9%	3.5%	-12.4%	-6.3%	-2.8%	-0.2%
Cc1cc2nc(-c3ccc(SCc4ccccn4)nc3)[nH]c2cc1C	u	3.1%	-6.2%	x	u	u	x	x
Cc1c(OC(C)C(=O)NCCCN2CCOCC2)ccc2c1oc(=O)c1ccccc12 (stereo unspecified)	-5.9%	-9.6%	-4.8%	x	u	-1.0%[46.1 µM]	-12.3%	x
CCCn1c(=O)c2sccc2n2c(CCCC(=O)Nc3cccc(CC)c3)nnc12	-19.0%	x	x	13.1%	x	-1.9%[46.1 µM]	x	-1.6%
Cc1ccc(C(OCC(O)CN2CCCCC2)c2ccccc2)cc1 (stereo unspecified)	2.5%	11.9%	-3.1%	x	u	-16.0%	-14.6%	x
O=C(Nc1ccccc1C(=O)N1CCN(c2ccccc2)CC1)c1ccco1	-16.6%	0.3%	-0.2%	3.9%	11.6%	-2.5%	-14.7%	2.2%
O=C(CSc1nnc(-c2ccccn2)n1Cc1ccccc1)Nc1ccc2c(c1)OCO2	-14.5%	7.4%	-2.6%	-8.7%	u	-1.2%	6.4%	-2.7%
COc1ccc(NS(=O)(=O)c2ccc3oc(SCC(N)=O)nc3c2)cc1	8.8%	22.1%	0.3%	x	-18.5%[46.1 µM]	x	-2.8%	x
COc1ccccc1-c1ccc(=O)n(CC(=O)NCc2cccs2)n1	32.5%[activator]	9.4%	3.2%	x	u	u	x	x
CCOc1cccc(CNCc2ccc(C(=O)O)cc2)c1	-4.1%	1.2%	4.5%	x	8.8%[46.1 µM]	16.2%[46.1 µM]	x	x
COc1cccc(-n2nnnc2S(C)(=O)=O)c1	u	-20.0%	-51.1%	1.1%	u	8.91µM*	-165.9%	3.4%
Cc1ccc(C)c(-n2cc(CNCCc3cnccn3)c(-c3ccccc3)n2)c1	1.1%	-2.6%	1.3%	x	x	x	-0.1%	x
Cc1c(NS(=O)(=O)c2ccccc2)cc(C(C)C)c(O)c1S(=O)(=O)c1ccc(Cl)cc1	-2.6%	x	x	-14.6%	11.2µM*	-19.3%[46.1 µM]	x	-4.8%
CC(C)(C)c1ccc(-c2nc(C#N)c(NCCCn3ccnc3)o2)cc1	-6.4%	4.9%	-0.9%	x	u	u	3.9%	x
Cc1nc2ccc(NC(=O)Cc3ccsc3)cc2s1	13.0%	-11.6%	3.3%	4.7%	-1.1%	3.3%	-1.3%	-0.7%
Cc1ccc(S(=O)(=O)N(CC(=O)c2ccccc2)C(=O)N2CCN(C)CC2)cc1	32.2%[activator]	19.2%	6.1%	x	5.1%	22.1%	x	x
Cc1ccc(OCCOc2cccc(C=C3C(=O)NC(=O)NC3=O)c2)c(C)c1	14.1µM*	-10.6%	-0.1%	x	u	u	-74.0%	x
CC1CCN(S(=O)(=O)c2ccc3[nH]c(=O)c(=O)[nH]c3c2)CC1	3.0%	2.3%	0.7%	-1.3%	7.4%	8.8%[14.3 µM]	1.2%	-1.4%
CCOC(=O)C1(CCOC)CCN(C(=O)Cc2ccsc2)CC1	-7.8%	-5.5%	-1.1%	x	x	x	10.5%	x
COc1ccccc1/C=C/C=N/n1c(-c2ccco2)n[nH]c1=S	6.5%	7.0%	0.2%	x	u	0.0%	11.4%	x
COc1cc(/C=N/NC(N)=O)ccc1OCC(=O)N1C(C)CCCC1C (stereo unspecified)	-3.6%	3.1%	1.1%	x	-19.6%[14.2 µM]	-3.1%	-2.0%	x
Cn1cc(/C=C2\SC(=S)N(NC(=O)c3ccccc3Cl)C2=O)c2ccccc21	7.4%	-2.2%	20.9%	10µM*	17.9%	0.2%	0.7%	-2.8%
CC(NC(=O)Cc1ccc(-c2ccccc2)cc1)c1ccccc1 (stereo unspecified)	-12.8%	0.6%	-6.5%	-6.2%	-3.5%	u	-5.7%	-1.3%
CC1=NN(C(N)=S)C(=O)C1N=Nc1ccc(Br)cc1 (stereo unspecified)	-26.6%	-20.9%	5.7%	x	u	u	-11.6%	x
Nc1nc(SCc2ccccc2)[nH]c(=O)c1-c1ccccc1	x	11.7%	-1.6%	-12.3%	u	-13.2%	-5.1%	0.6%
SMILES	StopGo reporter	RE007 growth inh	SARS PLpro yeast	Cruzain noTriton	MARV entry inh	Lassa entry inh	NS1 inh	Cruzain inh Det
Cc1ccc(-c2csc(NC(=O)c3c(C)noc3C)n2)s1	-15.7%	-13.9%	-47.4%	x	u	-10.9%	x	x
Cc1[nH]nc2c1C(c1cccnc1)N(c1ccc(Br)cc1)C2=O (stereo unspecified)	6.8%	7.2%	29.7%	1.0%	-10.3%&-10.3%	u	2.6%	1.2%
CCCC(=O)Oc1c(Sc2ccc(C)cc2)c(C)nn1-c1ccccc1	-9.2%	x	x	8.7%	u	19.2%[46.1 µM]	x	-2.2%
COc1ccc(C=NNC(=S)NN=Cc2ccc(OC)c(OC)c2)cc1OC	18.2%	-11.4%	x	x	u	u	x	x
CCN1C(=O)c2ccccc2Sc2ccc(NC(=O)COc3ccc(Cl)cc3)cc21	-14.3%	x	x	u	x	-22.8%[46.1 µM]	x	-1.2%
COc1ccccc1OCC(O)Cn1c(=N)n(Cc2ccccc2)c2ccccc21 (stereo unspecified)	u	-3.9%	7.7%	u	u	u	-4.6%	-1.2%
CNC(=S)N1CCN(c2nc(-c3cccc(OC)c3)cs2)CC1	-4.1%	20.2%	2.7%	x	x	x	9.8%	x
CCCN(CC(=O)Nc1ccccc1OC)C(=O)CCNC(=O)c1ccccc1OC	14.6%	-14.7%	-11.7%	x	-26.0%	u	x	x
CC1=C(C(=O)Nc2ccc(C)cc2C)C(c2ccc(Cl)cc2)n2nc(C(=O)OC(C)C)nc2N1 (stereo unspecified)	4.8%&6.8%	-6.0%	u	-10.6%&14.1%	25.3%[46.1 µM]	u	1.8%	0.9%&1.4%
Cc1ccc(SCC(=O)N2N=CCC2c2ccccc2)cc1 (stereo unspecified)	3.8%	15.2%	-2.8%	x	u	12.4%[46.1 µM]	-10.3%	x
CC(=O)N(C)c1ccc(N=C2C(=O)Nc3ccccc32)cc1	-16.2%	5.7%	1.3%	x	24.6%[46.1 µM]	5.0%[46.1 µM]	0.4%	x
C=CCNC(=O)c1ccccc1NC(=O)C1CCN(S(=O)(=O)c2ccc(SC)cc2)CC1	-19.4%	5.2%	5.5%	x	-22.4%[46.1 µM]	x	-2.4%	x
O=c1cc(N2CCN(c3ccccc3F)CC2)[nH]c(=O)n1-c1ccc(Br)cc1	3.3%	4.5%	-10.7%	25.1µM*	x	x	-19.6%	-1.5%
CCc1sc(C(=O)N2CCCN(C)CC2)cc1Br	3.9%	-7.0%	-4.4%	x	-15.4%[46.1 µM]	-12.6%[46.1 µM]	2.6%	x
COc1ccc(NC(=O)Nc2cc(-c3cn4cccnc4n3)ccc2C)cc1	9.7%	x	x	2.1%	u	-6.5%[46.1 µM]	x	1.0%
CCOC(=O)CNC(=O)Nc1cc(C(=O)NCc2ccccc2OC)ccc1N1CCCC1	-15.3%	x	x	8.1%	x	12.4%[46.1 µM]	x	-7.6%
CCSc1nnc(N2C(=O)c3ccc(C(=O)c4ccc(C(=O)O)cc4)cc3C2=O)s1	-19.2%	11.6%	-0.6%	x	x	x	u	x
CCOC(=O)c1nc(C)nc(Sc2n[nH]c(-c3cc(C(F)(F)F)cc(C(F)(F)F)c3)n2)c1C	-11.4%	21.6%	-2.7%	x	x	x	-5.4%	x
O=C(Nc1cccc(Cl)c1)c1ccc(F)c(S(=O)(=O)N2CCC3(CC2)OCCO3)c1	-24.6%	x	x	8.5%	x	u	x	-5.2%
Cc1noc(C)c1CC(=O)N1CCCC(C(=O)c2ccc(C(C)(C)C)cc2)C1 (stereo unspecified)	-27.1%	13.0%	1.8%	x	x	x	-2.3%	x
FC(F)(F)c1ccc(/C=N/NC(=S)NC2CCCCC2)cc1	-14.4%	-7.8%	-0.4%	x	-1.0%	-18.2%	x	x
CC(C)(CN1CCCCC1)NS(=O)(=O)c1ccc(Cl)cc1	-1.5%	u	x	1.0%	5.1%	-3.5%	-5.9%	8.2%
Cc1ccc(C)c(C(=O)COC(=O)CNS(=O)(=O)c2ccccc2)c1	-11.4%	-7.9%	0.5%	x	5.4%[46.1 µM]	10.8%[46.1 µM]	-89.0%	x
COc1ccc(-c2nn(-c3ccccc3)cc2/C=C\C(=O)Nc2ccc(C(=O)O)cc2)cc1	u	6.0%	-0.5%	x	u	u	3.3%	x
Cc1ccc(OCC(=O)N/N=C/c2cccnc2)cc1	2.6%	-10.8%	-2.7%	x	-6.9%[46.1 µM]	2.9%[46.1 µM]	-3.4%	x
SMILES	StopGo reporter	RE007 growth inh	SARS PLpro yeast	Cruzain noTriton	MARV entry inh	Lassa entry inh	NS1 inh	Cruzain inh Det
COc1ccc(NC(=O)c2cn(C)c(=O)c3cc(OC)c(OC)cc23)c(OC)c1	-10.6%	-3.5%	-2.7%	x	x	x	-4.0%	x
O=C(COc1nc2ccccc2nc1N1CCOCC1)Nc1cccc(S(=O)(=O)N2CCCCC2)c1	5.0%	22.6%	-3.6%	13.7%	u	u	21.0%	-7.9%
Cc1c(C(=O)C(=O)NCc2ccco2)c2ccccc2n1C	-8.2%	8.4%	2.8%	x	3.1%[46.1 µM]	-6.7%	x	x
Oc1ccc(Cl)cc1CNc1cnc2ccccc2c1	4.9%	-22.0%	-2.0%	x	x	x	-7.6%	x
CCOC(=O)C1CCN(C(=O)c2ccc3c(c2)sc2nc(-c4ccc(OCC)cc4)cn23)CC1	u	x	x	10.0%	x	8.6%[46.1 µM]	x	-1.8%
COc1cc(CN2CCN(Cc3ccc(C(F)(F)F)cc3)CC2)cc(OC)c1OC	u	3.5%	2.2%	x	x	x	-4.0%	x
COc1ccc2c(c1)NC(c1cc(Cl)cc(Cl)c1O)c1cccn1-2 (stereo unspecified)	-4.8%	21.4%	0.3%	x	3.4%[46.1 µM]	10.9%[46.1 µM]	2.9%	x
CCc1nnc(SCC(=O)N2CCCC(N3CCN(c4ccccc4C)CC3)C2)o1 (stereo unspecified)	u	-2.6%	-1.3%	x	27.0%	-14.0%	-3.1%	x

Screening data deposited in PubChem by National Center for Advancing Translational Sciences (NCATS).

Rows are unselected (roughly 4.7% active in at least one column).
